# Six1-Eya2 blk – blocks human Six1 binding to Eya2 | Q15475+O00167 | AlphaScreen GST-Six1/His-Eya2 binding, biochemical; stronger effect = lower value; control for the full effect not named in the record | activity change, % (no concentration beside the values) | hit rate 0.56% among 360,000; in the data active = activity change below about -65%; inconclusive = about -30% to -65%; inactive = above about -30%; also: % is scaled to controls: 0 for no effect and ±100 for the full control effect; compound concentration not given in the record
# Target sequence (O00167 whole entry, looked up): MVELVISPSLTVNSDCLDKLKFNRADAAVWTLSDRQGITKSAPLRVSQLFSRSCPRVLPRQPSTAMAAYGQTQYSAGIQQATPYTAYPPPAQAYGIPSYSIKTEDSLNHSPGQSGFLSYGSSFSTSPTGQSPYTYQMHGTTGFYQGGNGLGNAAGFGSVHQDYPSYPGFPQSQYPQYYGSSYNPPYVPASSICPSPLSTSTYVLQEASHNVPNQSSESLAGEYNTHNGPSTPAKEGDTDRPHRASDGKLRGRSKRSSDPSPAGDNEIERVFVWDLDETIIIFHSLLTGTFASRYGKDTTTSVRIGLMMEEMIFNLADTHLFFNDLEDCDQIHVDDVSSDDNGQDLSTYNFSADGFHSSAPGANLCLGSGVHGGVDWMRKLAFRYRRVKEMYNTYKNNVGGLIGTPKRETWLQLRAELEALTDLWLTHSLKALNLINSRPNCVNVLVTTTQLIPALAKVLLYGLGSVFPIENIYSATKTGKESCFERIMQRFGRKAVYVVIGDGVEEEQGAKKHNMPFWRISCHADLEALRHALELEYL
# Target sequence (Q15475 whole entry, looked up): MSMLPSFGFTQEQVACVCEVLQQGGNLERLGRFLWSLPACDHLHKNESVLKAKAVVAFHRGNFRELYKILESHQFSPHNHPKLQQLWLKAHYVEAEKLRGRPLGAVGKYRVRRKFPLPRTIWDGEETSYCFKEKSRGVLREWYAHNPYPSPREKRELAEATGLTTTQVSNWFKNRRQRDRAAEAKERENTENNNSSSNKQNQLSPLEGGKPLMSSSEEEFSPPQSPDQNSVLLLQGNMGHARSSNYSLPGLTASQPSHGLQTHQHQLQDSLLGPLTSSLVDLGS
#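 GST-Six1 + His-Eya2 (5X stock: 250/500 nM); Tris pH 8.0, 300 mM NaCl, 0.05% BSA, 0.02% Tween 20; GSH donor/Ni acceptor beads; 1 h 37 °C dark; AlphaScreen readout.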
# CtBP-E1A blk – blocks the CtBP interaction with E1A. AlphaScreen GST-E1A/His-CtBP binding, 1536-well; stronger effect = lower value; control for the full effect not named in the record. activity change, % (no concentration beside the values). hit rate 0.49% among 340,000. AID 651724; in the data active means activity change below about -65%; inconclusive means about -30% to -65%; inactive means above about -30%; also: % is scaled to controls: 0 for no effect and ±100 for the full control effect; compound concentration not given in the record
#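 Steps: dispense buffer (Tris pH 8.0, NaCl 300 mM, TCEP 1 mM, BSA, Tween 20); add 5X protein mix (GST-E1A, His-CtBP, 125 nM each); pin 23 nL compound; 2 h at 37 °C, dark; add 5X beads (50 ug/mL); 1 h; read.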
# PINK1 modulator – modulators of PINK1 expression | PINK1 immunofluorescence, high-content cytometry, 24 h | Potency, µM (top dose mostly 76.6 µM), without a hit: top-dose activation (PINK1 increase), usual class: activators | hit rate 0.2% among 410,000; active = well fitted activation curve with a large enough effect; inconclusive = small, poorly fitted or top-dose-only effect; inactive = flat fitted curve, though single readings scatter; cell line not stated here;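 also: potency is read from the fitted curve at half-maximal effect; % of control where 0% means no effect; nearly all actives have a fitted effect of over 65% in size; a mitochondrial uncoupler was the plate control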
#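 Readout is PINK1 immunofluorescence, quantified alongside mitochondrial, cell and nuclear markers by laser-scanning microplate cytometry. Cells from a stable line were exposed to compound titrations (5 concentrations) for 24 hours, with CCCP controls.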
# D2 ag – agonists of human D2 dopamine receptor (beta-arrestin) | P14416 | DiscoveRx PathHunter D2 beta-arrestin, luminescence, 90 min; 100% = 57 uM dopamine signal | activation, % (concentration not given with the values) | hit rate 0.084% among 360,000; in the data active = activation above about 40%; inconclusive = about 15% to 40%; inactive = below about 15%; also: compound concentration not given in the record; the text of the record calls up to 30% inactive
#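 DiscoveRx PathHunter D2 beta-arrestin cells (2,100/well) attached overnight, then compound-stimulated 90 min at 37 C in HBSS/10 mM HEPES/0.1% Tween-20 buffer; beta-galactosidase complementation read by luminescence after 1 h at ambient temperature. Dopamine 57 uM final (EC100) as control.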
# TRPML1 ag – agonists of human TRPML1 channel; Q9GZU1; TRPML1-expressing cells, Ca2+ dye fluorescence, FDSS; host cell line not named in the record; reference of the full effect not given here; activation, % (concentration not given with the values); hit rate 0.12% among 410,000; AID 624414; in the data active = activation above about 50%; inconclusive = about 30% to 50%; inactive = below about 30%; also: 0% is about no effect; the text of the record puts the active cut at 80%
#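 TRPML1-DL cells, Tet-induced overnight (~16 h, 37 degrees C), loaded 45-90 min at room temperature with Ca8 no-wash calcium dye plus quencher. FDSS fluorescence: 10 s baseline, compound pin-transfer, 110 s agonist read, then EC80 54-4 (4uM final) and 110 s antagonist read.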
# TRPML1 inh – blocks the human TRPML1 channel; Q9GZU1; TRPML1-inducible cells, Ca2+ dye fluorescence, FDSS; stronger effect = lower value; inhibition of EC80 agonist-evoked calcium signal; activity change, negative = inhibition, % (concentration not given with the values); hit rate 0.02% among 390,000; AID 624415; in the data active means activity change below about -50%; inconclusive means about -30% to -50%; inactive means above about -30%;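 also: stimulus is agonist 54-4 at its EC80 concentration; % is scaled to controls: 0 for no effect and ±100 for the full control effect; compound concentration not given in the record; the text of the record puts the active cut at -80%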
#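 Calcium fluorescence in TRPML1-DL cells induced overnight with Tet: a 110 s read after compound pin addition, then a 110 s antagonist read after challenge with 54-4 at 4 uM final (EC80).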
# * = called active by the depositor; u = inconclusive; x = no result given; & = joins results of further samples; [ ] = another dose, or the depositor's remark.
SMILES,Six1-Eya2 blk,CtBP-E1A blk,PINK1 modulator,D2 ag,TRPML1 ag,TRPML1 inh
Cc1ccc(-c2ccc(=O)n(CC(=O)NCC3COCCO3)n2)cc1 (centres undefined),14,33,-0.2%,-2.6,0.2,-11
CC(C)(C)c1ccc(C2=CSC3=NCCN23)cc1,-12,-11,-1.3%,13,-0.6,14
O=C(Nc1nnc(SCc2c(Cl)cccc2Cl)s1)C1CCCO1 (centres undefined),2,-4,11%[38.3 µM],-1.1,1.0,0
N#CC1=C2SCN(Cc3ccco3)CN2C(=O)CC1c1c(F)cccc1Cl (centres undefined),0,1,1.7%,-4.1,-0.2,-9
NC(=O)c1ccc(NC(=O)CCC(=O)N2CCN(S(=O)(=O)c3ccc(Cl)cc3)CC2)cc1,12,8,-0.6%,-2.7,0.3,46
CCOCCCNC(=O)C(c1ccccc1)N1Cc2ccccc2C1=O (centres undefined),x,x,-1.3%,x,0.3,-6
COc1c(S(=O)(=O)NCCCn2ccnc2)ccc(Cl)c1Cl,-1,3,0.6%,-3.2,0.1,6
CCOc1ccc(S(=O)(=O)N(C)c2ccc(OCC(=O)Nc3ccccc3F)cc2)cc1,-10,-6,-1.1%,1.0,2.3,-4
CCn1nc(C)cc1C(=O)Sc1cccc(Br)c1,5,10,4.2%,-3.0,1.4,5
CCOC(=O)c1sc(=S)n(C)c1NC(=O)c1ccccc1C,-17,-23,-0.5%,-3.2,0.0,19
CCOc1cccc(CC(=O)Nc2ccc3nc(N4CCCCC4)cc(C)c3c2)c1OCC,x,x,1.9%,x,-0.3,-11
COc1ccc(NC(=S)N2CCN(C)CC2)cc1,4,0,-1.0%,-2.9,0.6,-1
O=c1cc(SCc2ccccc2)nc[nH]1,1,15,5.4%,-3.8,-0.1,-9
O=C1[C@@H]2[C@H](C(=O)N1Cc1cccnc1)[C@H]1C=C[C@@H]2C1,5,11,u,-5.6,1.0,14
COc1cc(/C=N\NC(=O)CNC(=O)C2COc3ccccc3O2)ccc1O (centres undefined),6,0,0.6%,-2.8,-0.4,5

# Part of the list above, with values under each structure:
# Below each compound – Six1-Eya2 blk | CtBP-E1A blk | PINK1 modulator | D2 ag | TRPML1 ag | TRPML1 inh
- CCOC(=O)c1sc(=S)n(C)c1NC(=O)c1ccccc1C
    -17 | -23 | -0.5% | -3.2 | 0.0 | 19
- CCOc1cccc(CC(=O)Nc2ccc3nc(N4CCCCC4)cc(C)c3c2)c1OCC
    x | x | 1.9% | x | -0.3 | -11

# Continuation.
SMILES,Six1-Eya2 blk,CtBP-E1A blk,PINK1 modulator,D2 ag,TRPML1 ag,TRPML1 inh
Cc1ccc(C)c(OCCC(=O)OCC(=O)N(C)c2c(N)n(Cc3ccccc3)c(=O)[nH]c2=O)c1,9,-4,2.1%,-3.3,-0.3,-12
CC(=O)Nc1cc(N=Cc2ccc(O)cc2O)c(Cl)cc1Cl,-1,-4,7.3%,3.1,0.5,-11
Clc1ccc(C=NN2CCCCCC2)cc1,-14,-2,u,1.6,-0.3,-10
COC(=O)c1cc(S(=O)(=O)NCCc2ccccc2)c[nH]1,-2,10,1.1%,-2.5,-0.5,0
CCOC(=O)C1CCN(C(=O)c2ccc(CNS(=O)(=O)c3ccc(C)cc3)cc2)CC1,6,3,-2.0%,5.8,-0.6,4
CC(C)CC1c2[nH]c3ccccc3c2CCN1CCCn1cccn1 (centres undefined),-7,-10,2.6%,-4.5,-0.9,8
O=C(CCl)Oc1ccc2occ(C(=O)c3cccs3)c2c1,-3,1,-1.5%,1.9,-0.5,31
COc1ccc([C@H]2/C=C\CN(S(=O)(=O)c3ccc(C)cc3)[C@@H](C)C(=O)N2Cc2ccc(F)cc2)cc1,0,-3,0.7%,-2.3,-0.1,64
O=C(O)CSc1nnc(CNc2ccccc2Cl)n1-c1ccccc1,9,0,-0.7%,-2.8,-0.7,-6
CC1=NN(C(N)=S)C(=O)C1N=Nc1cccc(C)c1 (centres undefined),-3,-1,-0.1%,-1.7,-0.7,38
O=C(NCc1ccco1)c1ccc(NS(=O)(=O)c2cccc(F)c2)cc1,-2,1,-0.6%,9.8,0.6,8
Cc1nn(C2CCS(=O)(=O)C2)c(C)c1C=O (centres undefined),17,11,-0.6%,-3.0,0.4,-16
CCc1ccc2c(CSc3nnnn3C)cc(=O)oc2c1,3,6,0.7%,-3.5,0.4,15
CCNc1nc(N2CCCC2)nc(N2CCCC2)n1,3,-10,4.4%,-5.9,0.5,-3
CCOC(=O)c1c(NC(=O)c2cc(-c3ccc(OC)c(OC)c3)on2)sc2c1CCCC2,x,x,1.5%,x,-0.4,42
Cn1nc(CC(=O)NC2CCCCCCCCCCC2)c2ccccc2c1=O,0,3,u,1.7,0.1,-4
CCN1C(=O)C(F)(CC)C(=O)c2ccccc21 (centres undefined),7,-18,-1.0%,-1.7,-0.7,26
COc1ccc(OC)c(NS(=O)(=O)c2ccc3[nH]c4c(c3c2)CCCCC4)c1,x,x,u,x,1.3,-16
Cc1cc(C)n2nc(SCC(=O)Nc3ccccc3)nc2n1,4,-3,0.3%&1.1%,-1.3,-0.2&0.4,23&-11
COCCNC(=S)N(C)[C@H]1C[C@H]2c3cc(N4CCN(C)CC4)ccc3CCN2C(=O)[C@H]1[C@H](C)O,-2,5,0.1%,0.2,x,x
CCCCNS(=O)(=O)c1ccc(OC)c(Cl)c1Cl,0,5,x,2.6,0.0,6
CC(C)(C)C1CCC(C(=O)NNC(=O)c2ccncc2)CC1 (centres undefined),2,4,0.4%,-3.7,-0.3,-5
CCOc1ccc(NC(=O)c2ccc3snnc3c2)cc1,-7,-3,-4.2%&6.1%,-1.1,1.3&0.3,-4&5
CCN(C(=O)CSc1nc2ccccc2c(=O)n1Cc1ccc(C)cc1)C1CCS(=O)(=O)C1 (centres undefined),-2,0,11%,2.0,-0.6,-6
CC(C)OCCCNC(=O)CCN1C(=O)COc2ccccc21,25,94,5.9%[38.3 µM],-0.8,-0.3,-4
O=C(NCC(c1cccnc1)N1CCN(c2ccc(F)cc2)CC1)c1ccc2c(c1)OCO2 (centres undefined),-10,-1,-0.4%,-2.5,-0.7,8
O=C(C1CC1)N1CCN=C1SCc1ccc(Cl)cc1,4,-18,-1.0%,-4.9,1.6,60
CCCCn1cnc2c(oc3ccccc32)c1=O,-8,x,0.7%,-1.9,0.9,-2
O=C1NC(=O)C(CC(=O)N(Cc2ccco2)C2(C(=O)NC3CCCCC3)CCCCC2)N1 (centres undefined),5,4,-0.6%,1.4,0.9,6
Cc1cccc(Cn2c(SCCO)nc3c2c(=O)n(C)c(=O)n3C)c1,-7,-1,0.6%,-1.6,2.4,36

# Single records, from the list above. Screens in order: Six1-Eya2 blk	CtBP-E1A blk	PINK1 modulator	D2 ag	TRPML1 ag	TRPML1 inh
# Entry for `Cn1nc(CC(=O)NC2CCCCCCCCCCC2)c2ccccc2c1=O` = 0	3	u	1.7	0.1	-4
# Entry for `O=C(NCc1ccco1)c1ccc(NS(=O)(=O)c2cccc(F)c2)cc1` = -2	1	-0.6%	9.8	0.6	8

# The list goes on.
SMILES,Six1-Eya2 blk,CtBP-E1A blk,PINK1 modulator,D2 ag,TRPML1 ag,TRPML1 inh
COc1ccc(C2CC(c3ccc(OC)cc3)n3nc(NC(=O)c4ccco4)nc3N2)cc1 (centres undefined),-6,-8,0.1%,-1.3,-0.5,-5
CCN(CC)S(=O)(=O)c1ccc(Cl)c(C(=O)Oc2cccnc2)c1,-2,7,-2.5%,-3.5,-0.5,-7
CCOC(=O)C(NCCCCl)c1ccccc1 (centres undefined),9,2,-1.3%,-1.0,0.9,1
Cc1c(/C=N/Nc2ccc([N+](=O)[O-])cn2)c2ccccc2n1Cc1ccccc1,-1,-4,5.0%,0.7,0.5,-3
Cc1cccc(C2=NN(c3ccccc3)[C@@H](C(=O)N3CCOC3=O)[C@@H]2c2ccc([N+](=O)[O-])cc2)c1,-26,-8,-0.3%,-0.9,-0.6,-1
CCC(C)Nc1nc(N)c([N+](=O)[O-])c(Nc2ccccc2OC)n1 (centres undefined),-20,-14,3.6%,8.0,0.8,-7
Cc1c(C(=O)NCc2ccc(C#N)cc2)sc(=O)n1Cc1ccc(C(=O)N(C)C)cc1,-2,-19,0.3%,-0.9,-0.2,x
Cc1c(C)c2cc3c(c(C)c2oc1=O)OCN(CCc1ccccc1)C3,x,x,1.8%,x,-0.8,-13
O=C(NNC(=O)c1ccc(Cl)cc1Cl)c1csc(-c2cccnc2)n1,-10,-20,-1.2%,-5.1,4.5,32
CCN(CC)Cc1c(NC(=O)c2ccc(OC)cc2)sc2c1CCCC2,x,x,6.6%,x,-0.5,-16
O=C(Nc1ccccc1Cl)c1ccc2nc(N3CCOCC3)sc2c1,0,2,1.7%,-6.1,-0.9,-1
CC(=O)N1CCN(C(=O)c2cc3c(s2)CCCC3)CC1,1,6,0.4%,-2.3,-0.6,-4
Cc1cc(OCC(=O)Nc2nccs2)c2c(C)cc(=O)oc2c1,1,1,5.7%,-4.5,0.6,-1
C/C(Cl)=C/Cn1c(SCC(C)C)nc2c1c(=O)[nH]c(=O)n2C,3,1,8.6%,-3.0,2.8,18
COc1ccnc(NCc2cccc(C(F)(F)F)c2)c1C#N,5,5,14%[38.3 µM],0.6,1.0,5
Cc1nnc(N2C(=O)c3oc4ccccc4c(=O)c3C2c2ccc(C(C)(C)C)cc2)s1 (centres undefined),x,x,5.2%,x,0.7,20
O=C(NCC1CC1)[C@]1(C(F)(F)F)C[C@H](CCC2CCCCC2)CCCO1,3,15,2.4%,-1.3,0.2&0.4,-5&4
CCOc1cc(CNC(=O)c2ccc3c(c2)N(C)C(=O)C2CCCCN32)cc(OCC)c1OCC (centres undefined),x,x,2.3%,x,2.0,-2
Cc1nnc(N/N=C/c2cccc(C(F)(F)F)c2)n1N,u,u,-0.1%,0.2,-1.1,18
CNc1oc(-c2ccccc2Cl)nc1C#N,0,-12,2.8%,-5.2,0.8,40
COCc1cc(C)nc(Nc2ccc(C)c(C)c2)c1C#N,0,9,0.9%[38.3 µM],-2.3,-0.5,-5
CCOC(=O)c1c(Nc2ccc(F)cc2)nnc(-c2ccccc2)c1-c1ccccc1,x,x,-1.1%,x,1.5,7
Cc1ccc(NC(=O)COC(=O)COc2cccc3c2OC(C)(C)C3)cc1S(=O)(=O)N1CCOCC1,1,0,0.1%,-1.9,-0.8,19
CCCC(C)C(=O)NCc1ccc2c(c1)OCO2 (centres undefined),2,-1,3.6%,-2.5,-0.6,-12
CCOc1ccc(CNC(=O)CSc2c3c(nc4ccc(Cl)cc24)CCCC3)cc1,x,x,5.1%,x,2.6,2
Cn1c(CCC(=O)O)nc2cc(S(=O)(=O)N3CCCCC3)ccc21,1,-4,1.6%,5.5,2.2,3
COc1ccccc1NC(=O)c1ccccc1-c1nc(-c2ccccc2OC)no1,-6,0,8.5%[38.3 µM],-1.8,2.4,-1
COc1cc(CNc2ccc(CNc3ncn[nH]3)cc2)ccc1OCC(=O)NC(C)(C)C,-5,1,1.4%,0.0,-0.7,9
CCn1c(/C=C2\C(=O)Nc3ccccc32)nc2ccccc2c1=O,2,-3,-1.0%,-3.3,-0.7,-15

# Compound activity from PubChem.

# Rows are unselected; 1% or so of the library scored in one or more.
